Screens: PubChem BioAssay, Broad Institute
rRNA inh HTS: selective bacterial rRNA inhibition in E. coli | AID 720706 | 350,000 tested, 1.6% active | GFP signal change (wild-type ribosome), % (concentration not given with the values) | E. coli WT GFP vs humanized-ribosome RFP mutants, fluorescence, 24 h; active compounds read low; DMSO median 0, no signal -100;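 active = significant combined selectivity score with lowered wild-type GFP, culture density cut under 30%, mutant RFP and density less affected; inactive = any of these conditions unmet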; also: one replicate is shown; some compounds called inactive have numbers as strong as hits
FGF22 binding: FGF22 (human) thermal shift binding. Q9HCT0. recombinant FGF22 thermal shift, SYPRO orange fluorescence; percent of sucrose octasulfate shift, DMSO zero. 340,000 tested, 1.5% active. calls only at 9.99 µM;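 active = melting point raised past a set limit in the mean and every replicate; three in four hits are not shown here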
Target sequence (Q9HCT0 whole entry, looked up): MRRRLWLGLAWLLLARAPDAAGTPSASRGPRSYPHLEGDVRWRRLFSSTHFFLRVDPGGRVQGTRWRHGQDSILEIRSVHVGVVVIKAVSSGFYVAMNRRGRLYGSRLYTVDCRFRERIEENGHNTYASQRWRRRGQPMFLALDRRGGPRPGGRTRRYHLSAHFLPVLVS
rRNA inh HTS OD600: also measured in rRNA inh HTS; calls as there; OD600 change, %; measured here: OD600 growth;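 optical density of the mix in the first replicate; 0 = DMSO median and -100 = no signal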
rRNA inh HTS RFP: further read-out of rRNA inh HTS, marked with its call; RFP signal change, %; measured here: RFP humanized mutant strains;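 first replicate; 0 = DMSO median and -100 = no signal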
* = called active by the depositor; i = inactive; + = active, no number. These rows are one share of the data; the hit share may differ from the screen's.

rRNA inh HTS	rRNA inh HTS OD600	rRNA inh HTS RFP	FGF22 binding	molecule
2	6	-2.2	i	C[C@@H]1CCCCO[C@@H](CN(C)C(=O)Nc2ccccc2)[C@H](C)CN([C@@H](C)CO)C(=O)c2cc(NS(C)(=O)=O)ccc2O1
2	8	-2.3	i	COc1ccc2c3c([nH]c2c1)[C@H](CO)N(C(=O)c1cccnc1)CC31CCN(C(=O)NC(C)C)CC1
1	1	0.1	i	COc1ccc(NC(=O)Nc2ccc3c(c2)CC(=O)N([C@@H](C)CO)C[C@@H](C)[C@H](CN(C)Cc2ccc(-c4ccccc4)cc2)O3)cc1
4	-6	-2.1	i	C[C@@H]1CN([C@@H](C)CO)C(=O)c2cc(/C=C/c3ccccc3)cnc2O[C@@H]1CN(C)C(=O)c1cccnc1
6	25	0.3	i	CCC(=O)N(C)C[C@@H]1Oc2ncc(/C=C/c3ccccc3)cc2C(=O)N([C@H](C)CO)C[C@@H]1C
-2	8	-1.4	i	COCCNC(=O)C[C@@H]1CC[C@@H]2[C@@H](COc3ccc(NC(=O)Nc4cccc(F)c4)cc3C(=O)N2C)O1
-1	2	-0.6	i	CO[C@@H]1CN(C)C(=O)c2ccc(NC(C)=O)cc2OC[C@H](C)N(Cc2nccs2)C[C@H]1C
-4	-21	0.5	i	CC(C)CC#Cc1cnc2c(c1)C(=O)N([C@@H](C)CO)C[C@@H](C)[C@H](CN(C)C(=O)CC1CC1)O2
0	4	0.3	i	O=C(Nc1ccccc1F)N1C[C@H]2[C@@H](c3ccccc31)[C@@H](CO)N2C(=O)Nc1ccccc1
0	1	0.5	i	C[C@@H]1CCCCO[C@H](CN(C)Cc2ccc(C(F)(F)F)cc2)[C@H](C)CN([C@@H](C)CO)C(=O)c2cc(NC(=O)Nc3cccc4ccccc34)ccc2O1
2	-3	-1.6	i	O=C1[C@@H](Cc2ccccc2)CCn2cc(nn2)COCC2CCCN12 (stereo partly drawn)
-1	5	-0.1	i	C[C@@H]1CCCCO[C@@H](CN(C)S(=O)(=O)c2ccccc2)[C@@H](C)CN([C@@H](C)CO)C(=O)c2cc(NC(=O)CCCN(C)C)ccc2O1
-11	-4	7.5	i	CN1CCN(C(=O)C[C@@H]2C[C@H]3c4cc(NC(=O)Nc5ccc(C(F)(F)F)cc5)ccc4O[C@H]3[C@@H](CO)O2)CC1
1	5	-3.3	i	CCCC(=O)Nc1ccc2c(c1)OC[C@H](C)N(C(=O)c1ccccc1F)C[C@H](C)[C@@H](OC)CN(C)C2=O
-2	9	-1.8	i	Cc1ccc(S(=O)(=O)N(C)C[C@H]2Oc3ncc(C#CC4(O)CCCC4)cc3C(=O)N([C@H](C)CO)C[C@H]2C)cc1

Fetched one by one from above:
rRNA inh HTS	rRNA inh HTS OD600	rRNA inh HTS RFP	FGF22 binding	molecule
2	8	-2.3	i	COc1ccc2c3c([nH]c2c1)[C@H](CO)N(C(=O)c1cccnc1)CC31CCN(C(=O)NC(C)C)CC1
-2	9	-1.8	i	Cc1ccc(S(=O)(=O)N(C)C[C@H]2Oc3ncc(C#CC4(O)CCCC4)cc3C(=O)N([C@H](C)CO)C[C@H]2C)cc1
1	5	-3.3	i	CCCC(=O)Nc1ccc2c(c1)OC[C@H](C)N(C(=O)c1ccccc1F)C[C@H](C)[C@@H](OC)CN(C)C2=O

(list continues)
rRNA inh HTS	rRNA inh HTS OD600	rRNA inh HTS RFP	FGF22 binding	molecule
2	-1	-1.1	i	CC=Cc1ccc2n(c1=O)C[C@H]1[C@H](CO)[C@@H](C(=O)NCc3ccccn3)[C@@H]2N1CC1CC1 (mixture of isomers)
2	4	3.8	+	O=C(C[C@H]1CC[C@@H]2[C@H](COC[C@@H](O)CN2Cc2nccs2)O1)NCc1ccccc1F
-8	2	-2.9	i	CC(=O)N(C)C[C@H]1Oc2cc(-c3ccc(C#N)cc3)ccc2S(=O)(=O)N([C@@H](C)CO)C[C@@H]1C
-2	-9	2.5	i	CC(C)C#Cc1ccc2c(c1)O[C@@H](CN(C)C(=O)c1ccncc1)[C@@H](C)CN([C@@H](C)CO)S2(=O)=O
-16	-27	-1.5	i	CCCC#Cc1ccc2c(c1)O[C@@H](CN(C)C(=O)c1ccccc1F)[C@H](C)CN([C@@H](C)CO)S2(=O)=O
0	-2	0.2	i	C[C@@H]1CCCCO[C@@H](CN(C)C(=O)CCC(F)(F)F)[C@@H](C)CN([C@@H](C)CO)C(=O)c2cc(NC(=O)Cc3ccccc3)ccc2O1
1	-19	1.1	i	CN1C(=O)c2cc(NC(=O)NCc3ccccc3)ccc2OC[C@H]2O[C@@H](CC(=O)NCC3CCCCC3)CC[C@H]21
3	-1	-1.1	i	CO[C@H]1CN(C)C(=O)c2cc(NC(=O)c3cccc(F)c3)ccc2OC[C@H](C)NC[C@H]1C
-4	-8	1.5	i	O=C(NC1CCCC1)[C@@H]1[C@@H](CO)[C@@H]2Cn3c(ccc(-c4cccnc4)c3=O)[C@@H]2N1CCc1ccccc1
3	13	-1.5	i	C[C@H](NC(=O)C[C@H]1C[C@@H]2c3cc(NS(C)(=O)=O)ccc3O[C@@H]2[C@@H](CO)O1)c1ccccc1
2	14	-7.7	i	CC(C)C[C@H]1COCn2nncc2CC[C@@H](Cc2ccccc2)C(=O)N1
-3	1	1.2	i	C[C@H]1CN([C@@H](C)CO)C(=O)Cc2cc(NC(=O)Nc3ccc(F)cc3)ccc2O[C@H]1CN(C)Cc1ccc(C(F)(F)F)cc1
-6	-15	-0.1	i	COc1ccccc1CNC(=O)C[C@@H]1CC[C@H]2[C@@H](COC[C@H](O)CN2Cc2cccc(-c3ccncc3)c2)O1
-5	-8	2.8	i	O=C(Nc1ccccc1F)N[C@@H]1CC[C@H](CCNS(=O)(=O)c2ccc(Cl)cc2)O[C@H]1CO
4	8	-3.3	i	Cc1ccccc1-c1cnc2c(c1)C(=O)N([C@H](C)CO)C[C@@H](C)[C@@H](CN(C)CC1CCOCC1)O2

Structures shown so far containing a CF3 group:
rRNA inh HTS	rRNA inh HTS OD600	rRNA inh HTS RFP	FGF22 binding	molecule
0	1	0.5	i	C[C@@H]1CCCCO[C@H](CN(C)Cc2ccc(C(F)(F)F)cc2)[C@H](C)CN([C@@H](C)CO)C(=O)c2cc(NC(=O)Nc3cccc4ccccc34)ccc2O1
-11	-4	7.5	i	CN1CCN(C(=O)C[C@@H]2C[C@H]3c4cc(NC(=O)Nc5ccc(C(F)(F)F)cc5)ccc4O[C@H]3[C@@H](CO)O2)CC1
0	-2	0.2	i	C[C@@H]1CCCCO[C@@H](CN(C)C(=O)CCC(F)(F)F)[C@@H](C)CN([C@@H](C)CO)C(=O)c2cc(NC(=O)Cc3ccccc3)ccc2O1
-3	1	1.2	i	C[C@H]1CN([C@@H](C)CO)C(=O)Cc2cc(NC(=O)Nc3ccc(F)cc3)ccc2O[C@H]1CN(C)Cc1ccc(C(F)(F)F)cc1

More compounds
rRNA inh HTS	rRNA inh HTS OD600	rRNA inh HTS RFP	FGF22 binding	molecule
-1	7	1.2	i	C[C@H](CO)N1C[C@H](C)[C@@H](CN(C)C(=O)Cc2ccncc2)Oc2ncc(C#C[C@@H](C)O)cc2C1=O
4	-2	0.4	i	CCS(=O)(=O)N[C@H]1C=C[C@@H](CC(=O)NCc2ccc(Cl)cc2)O[C@H]1CO
-2	-6	-0.5	i	COCC(=O)Nc1ccc2c(c1)[C@@H]1C[C@H](CC(=O)NCc3ccc4c(c3)OCO4)O[C@@H](CO)[C@@H]1O2
-41	-42	-1.5	i	CC(C)C#Cc1ccc([C@H]2[C@@H](CO)N3CCCCN(S(=O)(=O)Cc4ccccc4)C[C@H]23)cc1
4	3	-0.2	i	COCC(=O)N1C[C@H](C)[C@@H](OC)CN(C)C(=O)c2ccc(NC(=O)c3cc(C)on3)cc2OC[C@@H]1C
0	-2	-3.5	i	C[C@@H]1CN([C@H](C)CO)C(=O)c2ccccc2-c2ccccc2CO[C@@H]1CN(C)S(=O)(=O)c1ccsc1
3	1	-1.0	i	CO[C@H]1CN(C)C(=O)c2cc(NS(C)(=O)=O)ccc2OC[C@@H](C)N(C(=O)c2ccc3c(c2)OCO3)C[C@H]1C
-2	-2	-0.4	i	C[C@H](CO)N1C[C@H](C)[C@@H](CN(C)S(C)(=O)=O)OCCCC[C@H](C)Oc2ccc(NC(=O)Nc3ccccc3)cc2C1=O
1	-2	-1.6	i	Cc1ccc(S(=O)(=O)Nc2ccc3c(c2)C(=O)N([C@H](C)CO)C[C@@H](C)[C@@H](CN(C)C(=O)Nc2ccccc2)OCCCC[C@@H](C)O3)cc1
-7	-9	-2.2	i	CC(C)C#Cc1ccc2c(c1)O[C@@H](CN(C)S(=O)(=O)c1cn(C)cn1)[C@H](C)CN([C@H](C)CO)S2(=O)=O
-2	-10	0.9	i	COc1cccc(-c2ccc3c(c2)O[C@H](CN(C)C(=O)C2CCCCC2)[C@H](C)CN([C@@H](C)CO)S3(=O)=O)c1
5	8	-0.8	i	CC(=O)Nc1ccc2c(c1)C(=O)N(C)[C@H]1CC[C@@H](CC(=O)NCC3CC3)O[C@@H]1CO2
4	8	-0.4	i	COc1ccccc1S(=O)(=O)N[C@@H]1CC[C@@H](CC(=O)N2CCCCC2)O[C@H]1CO
3	10	-1.1	i	C[C@H](CO)N1C[C@H](C)[C@@H](CN(C)C)OCCCC[C@H](C)Oc2ccc(NC(=O)c3ccccc3)cc2C1=O
-3	1	-2.2	i	COc1cccc(-c2ccc3n(c2=O)C[C@H]2[C@H](CO)[C@@H](C(=O)NC4CCC4)N(S(C)(=O)=O)[C@@H]32)c1
3	-1	2.4	i	Cc1ccc(S(=O)(=O)N(C)C[C@H]2OCCCC[C@H](C)Oc3ccc(NC(=O)C4CCCCC4)cc3C(=O)N([C@@H](C)CO)C[C@@H]2C)cc1
5	12	-0.1	i	C[C@H]1CN([C@@H](C)CO)C(=O)c2cccc(NC(=O)CCCCCC(=O)Nc3ccccc3N)c2O[C@H]1CN(C)C(=O)NC1CCCCC1
2	0	-0.3	i	CCNC(=O)C[C@@H]1CC[C@H]2[C@@H](COc3ccc(NS(C)(=O)=O)cc3C(=O)N2C)O1
-2	2	-2.2	i	COc1ccc(CN(C)C[C@H]2Oc3c(NC(=O)Nc4ccc5c(c4)OCO5)cccc3C(=O)N([C@@H](C)CO)C[C@H]2C)cc1
2	16	-1.3	i	O=C(CN1CCOCC1)NCC[C@@H]1CC[C@H](NC(=O)Nc2ccccc2)[C@@H](CO)O1
-1	-9	2.7	i	COc1ccc2c3c(n(C)c2c1)[C@@H](CO)N(Cc1ccccc1)CC31CCN(C(=O)Nc2cccc(F)c2)CC1
-7	-11	1.1	i	CCCNC(=O)C[C@H]1C[C@H]2c3cc(NC(=O)c4ccc5c(c4)OCO5)ccc3O[C@H]2[C@H](CO)O1
-7	-13	0.1	i	C[C@@H]1CCCCO[C@@H](CN(C)C(=O)Nc2ccc(C(F)(F)F)cc2)[C@H](C)CN([C@H](C)CO)C(=O)c2cc(NS(C)(=O)=O)ccc2O1
-4	-4	1.8	i	CCC(=O)N1C[C@@H](C)[C@@H](OC)CN(C)C(=O)c2cc(NC(=O)NC(C)C)ccc2OC[C@H]1C
-3	2	-1.0	i	CCCC#Cc1ccc2c(c1)O[C@H](CN(C)C(=O)COC)[C@@H](C)CN([C@H](C)CO)S2(=O)=O
-1	-6	-1.3	i	Cc1ccc(S(=O)(=O)N(C)C[C@H]2Oc3ncc(C#CCC(C)C)cc3C(=O)N([C@H](C)CO)C[C@@H]2C)cc1
-1	-4	-0.2	i	CO[C@@H]1CN(C)C(=O)c2cc(NS(=O)(=O)CC(F)(F)F)ccc2OC[C@H](C)N(CCC(F)(F)F)C[C@H]1C
2	2	0.6	i	O=C(CCN1CCCCC1)NCC[C@@H]1CC[C@@H](NC(=O)Nc2ccc(Cl)cc2)[C@H](CO)O1
-2	-10	-1.2	i	C[C@@H]1CN([C@H](C)CO)S(=O)(=O)c2ccc(-c3cncnc3)cc2O[C@@H]1CN(C)Cc1cncnc1
-1	9	-5.2	i	O=C(c1cccc(F)c1)N1C[C@@H]2[C@H](c3ccccc31)[C@@H](CO)N2C(=O)C1CCOCC1

FGF22 binding: entries above that show a hit
rRNA inh HTS	rRNA inh HTS OD600	rRNA inh HTS RFP	FGF22 binding	molecule
2	4	3.8	+	O=C(C[C@H]1CC[C@@H]2[C@H](COC[C@@H](O)CN2Cc2nccs2)O1)NCc1ccccc1F

Following part.
rRNA inh HTS	rRNA inh HTS OD600	rRNA inh HTS RFP	FGF22 binding	molecule
0	5	-1.0	i	C[C@H](CO)N1C[C@H](C)[C@@H](CN(C)C(=O)c2ccncc2)OCCCC[C@H](C)Oc2ccc(NC(=O)c3ccncc3)cc2C1=O
4	6	1.5	i	Nc1nc(-c2ccc(Cl)cc2)cs1
-1	10	-0.5	i	O=C(C[C@H]1CC[C@@H]2[C@H](COC[C@H](O)CN2S(=O)(=O)c2cccc(Cl)c2)O1)N1CCOCC1
4	5	2.0	i	CCC(=O)N1CCCCN2[C@H](C1)[C@H](c1ccc(C#CCOC)cc1)[C@@H]2CO
4	4	1.7	i	CS(=O)(=O)Nc1ccc2c(c1)[C@H]1C[C@@H](CC(=O)NCc3ccncc3)O[C@H](CO)[C@H]1O2
1	-1	-0.1	i	C[C@@H]1CN([C@@H](C)CO)C(=O)c2cccc(NC(=O)Nc3ccc4c(c3)OCO4)c2O[C@@H]1CN(C)CC1CCCCC1
-2	13	0.1	i	O=C(Nc1ccc(F)cc1)N1C[C@H]2[C@@H](c3ccccc31)[C@@H](CO)N2Cc1cocn1
0	-1	-2.7	i	C[C@H](CO)N1C[C@H](C)[C@H](CN(C)S(=O)(=O)c2cn(C)cn2)Oc2ccc(NC(=O)Cc3ccccc3)cc2C1=O
-7	-3	-2.3	i	CCCNC(=O)N1C[C@H](O)COC[C@H]2O[C@H](CC(=O)N[C@@H]3CCN(Cc4ccccc4)C3)CC[C@@H]21
